Assay outcomes from PubChem.
LASV entry inh = Lassa virus entry inhibition | Lassa virus pseudotype entry inhibition, cell reporter; control for the full effect not named in the record | AID 540256 | Potency, µM (highest dose often 37.9 µM), without a hit: top-dose activity change, negative = inhibition, usual class: inhibitors | hit rate 1.2% among 300,000; active means well fitted inhibition curve with a large enough effect; inconclusive means small, poorly fitted or top-dose-only effect, or effect the other way; inactive means flat fitted curve, though single readings scatter; tested in HEK293 cells; note: % is set by controls: 0 for no effect and ±100 for the full control effect; nearly all actives have a fitted effect of over 50% in size; luciferase read-out
RE007 growth inh = less growth of the S. pombe RE007 Vpr strain; S. pombe RE007 Vpr strain, BacTiter-Glo ATP luminescence, 24 h; control for the full effect not named in the record; Potency, µM (doses to about 92.2 µM), without a hit: top-dose activity change, negative = less growth; hit rate 0.21% among 360,000; active = well fitted falling curve with a large enough effect; inconclusive = small, poorly fitted or top-dose-only effect; inactive = no such curve, though single readings can be large or run the other way;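 note: % is set by controls: 0 for no effect and ±100 for the full control effect; nearly all actives have a fitted effect of over 50% in size; the assay follows cell death caused by Vpr and the record does not say whether a fall means rescue or toxicity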
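Fission yeast RE007 carrying one integrated HIV-1 vpr copy, seeded at OD 0.01 in PMG+AL medium with 23 nL pinned compound. Grown 24 h at 30 degrees; viability read by BacTiter-Glo luminescence after 5 min.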
Marburg entry inh = inhibitors of Marburg virus binding or cell entry; Marburg virus pseudotyped entry inhibition, cell reporter; control for the full effect not named in the record; about a third of the inactives were read at about 46 µM; Potency, µM (highest dose often 37.8 µM), without a hit: top-dose activity change, negative = inhibition, hits mostly inhibitors; hit rate 1.8% among 300,000; active = well fitted inhibition curve with a large enough effect; inconclusive = small, poorly fitted or top-dose-only effect, or effect the other way; inactive = flat fitted curve, though single readings scatter; tested in HEK293 cells; about a fifth of its hits are not listed in these tables; note: % is set by controls: 0 for no effect and ±100 for the full control effect; luciferase read-out
SARS PLpro yeast = SARS-CoV PLP inhibition in yeast | hit rate 0.19% among 330,000 | S. cerevisiae expressing SARS-CoV PLpro, growth rescue; control for the full effect not named in the record | AID 485353 | Potency, µM (series often up to 32.9 µM), without a hit: at the highest dose activity, positive = growth rescue; note: 0% is about no effect; nearly all actives have a fitted effect of over 55% in size; growth read by luminescence after 48 h
Cruzain inh noDet = cruzain (T. cruzi) inhibition without detergent; Potency, µM, inactives show max response, negative = inhibition, hits mostly inhibitors; P25779; AID 1476; hit rate 2.3% among 200,000; purified cruzain, Z-FR-AMC fluorescence, no detergent; active = well fitted curve in the direction sought with a large enough effect; inconclusive = small, poorly fitted or top-dose-only effect, or another doubt; inactive = no such curve, though single readings can be large; an effect the other way counts as inactive or inconclusive;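 note: plate controls were enzyme without inhibitor for no effect and buffer without enzyme for full effect; nearly all actives have a fitted effect of over 40% in size; top concentration of the series not given in the record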
Target sequence (P25779 123-467 limits assumed): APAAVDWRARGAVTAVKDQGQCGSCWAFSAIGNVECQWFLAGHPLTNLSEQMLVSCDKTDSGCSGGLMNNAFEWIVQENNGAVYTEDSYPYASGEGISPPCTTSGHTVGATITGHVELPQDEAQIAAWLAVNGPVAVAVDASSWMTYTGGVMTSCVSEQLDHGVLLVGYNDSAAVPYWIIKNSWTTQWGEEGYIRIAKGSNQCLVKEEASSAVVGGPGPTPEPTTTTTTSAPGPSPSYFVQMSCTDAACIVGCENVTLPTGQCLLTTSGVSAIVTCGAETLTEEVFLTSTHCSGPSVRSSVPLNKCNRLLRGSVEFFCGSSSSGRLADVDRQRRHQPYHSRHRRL
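Purified cruzain at 1.5 nM, pre-incubated 15 min with compound at room temperature in 100 mM sodium acetate pH 5.5, 5 mM DTT, 0.00005% Triton X-100. Reaction started with 2 uM Z-FR-AMC; AMC fluorescence increase over 60 s gives rate.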
Cruzain inh Det = blocks cruzain activity in presence of Triton detergent; P25779; purified cruzain, Z-FR-AMC fluorescence, 0.01% Triton; Potency, µM, inactives show max response, negative = inhibition, usual class: inhibitors; hit rate 0.43% among 200,000; AID 1478; active = well fitted curve in the direction sought with a large enough effect; inconclusive = small, poorly fitted or top-dose-only effect, or another doubt; inactive = no such curve, though single readings can be large; an effect the other way counts as inactive or inconclusive;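 note: plate controls were neutral wells for no effect and buffer without enzyme for full effect; nearly all actives have a fitted effect of over 40% in size; top concentration of the series not given in the record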
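15 min RT preincubation of 1.5 nM cruzain with compound, then 2 uM Z-FR-AMC added; kinetic AMC fluorescence, 60 s delta. Triton X-100 0.01%, pH 5.5.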
StopGo reporter = lowers the luciferase signal of an FMDV 2A StopGo reporter; human cells with a luciferase reporter of 2A StopGo recoding; control for the full effect not named in the record; Potency, µM (series often up to 57.9 µM), for inactives: top-dose signal change, negative = less light; hit rate 1.2% among 410,000; active = well fitted falling curve with a large enough effect; inconclusive = small, poorly fitted or top-dose-only effect; inactive = no such curve, though single readings can be large or run the other way; tested in HEK293T cells; note: % is set by controls: 0 for no effect and ±100 for the full control effect; nearly all actives have a fitted effect of over 45% in size; luciferase light after 4 h
NS1 function inh = blocks influenza NS1 protein function | S. cerevisiae slowed by influenza A NS1, growth recovery by OD600 | Potency, µM (series often up to 46.1 µM), without a hit: at the top dose activity, positive = more growth | hit rate 0.4% among 270,000 | AID 2326; note: actives are rising curves; nearly all actives have a fitted effect of over 50% in size
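Read-out: OD600 growth recovery of NS1-expressing budding yeast. Cells grown overnight at 30C in -URA glucose medium, washed, resuspended and diluted 1:100 in 2% galactose assay medium, pH 6.0. Same strain lacking NS1 served as positive control.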
An asterisk follows results filed as active; ? = inconclusive; . = no result given; & = joins results of further samples; [ ] = dose if it differs, or a comment. Unless noted, calls come from the whole dose curve; as a rule, active means well fitted rising curve with a large enough effect; inconclusive means small, poorly fitted or top-dose-only effect; inactive means no such curve, though single readings can be large or run the other way. Potency is the fitted concentration of half-maximal effect. Hits appear at their usual frequency. Share with any hit: about 4.7%.

No. | structure | LASV entry inh | RE007 growth inh | Marburg entry inh | SARS PLpro yeast
1 | O=C(NNS(=O)(=O)c1ccc(F)cc1F)c1csc(-c2cccnc2)n1 | . | -7% | . | 0%
2 | CCOc1ccc(C(=O)Nc2ccc3oc(-c4ccc(Br)cc4)nc3c2)cc1 | -24%[46.1 µM] | . | . | .
3 | C/C(CC(=O)Nc1cccnc1)=N\NC(=O)C(C)Oc1ccc(Cl)cc1Cl (stereo not given) | -15% | -19% | ? | 0%
4 | O=C(O)CC(C(=O)O)C(c1ccccc1)c1ccccc1 (stereo not given) | -2%[46.1 µM] | 3% | 3%[46.1 µM] | .
5 | CCc1cccc(C)c1NC(=O)CSc1nc2ccccc2n1CC(=O)N(C)C | 13% | -9% | 7% | 0%
6 | COc1ccc2[nH]c(=O)c(CN(C(=O)c3cccc(Cl)c3)c3ccccc3OC)cc2c1 | 1%[46.1 µM] | . | 5%[46.1 µM] | .
7 | Clc1cc(Cl)c(Cl)c(Cl)c1Cl | . | 16% | . | -3%
8 | Cc1nc2nc(C)c(CCC(=O)N3CCOCC3)c(C)n2n1 | 17% | 1% | -3% | 4%
9 | CCCN(CC(=O)Nc1cc(Cl)cc(Cl)c1)CC(=O)Nc1ccc(F)c(F)c1F | ? | 2% | ? | -55%
10 | Cc1ccc([N+](=O)[O-])cc1NC(=O)c1ccc(C(C)(C)C)cc1 | -11% | -20% | -29% | -2%
11 | COc1ccc(/C=C/c2nnc(NC(=O)CC(C)C)s2)cc1 | -7% | 4% | 16%[46.1 µM] | 0%
12 | O=C(Nc1ccc(Oc2ccccc2)cc1)c1ccc(F)c(S(=O)(=O)N2CCN(c3ccccc3F)CC2)c1 | ? | . | . | .

No. | Cruzain inh noDet | Cruzain inh Det | StopGo reporter | NS1 function inh
1 | . | . | -14% | 2%
2 | -2% | 0.1% | 1% | .
3 | . | . | -10% | -1%
4 | . | . | -2% | .
5 | 8% | 5.7% | . | 4%
6 | 7% | -13% | -8% | .
7 | -1% | 5.0% | -23% | .
8 | 1% | 4.6% | -8% | -5%
9 | 2% | -10% | -23% | -9%
10 | -2% | -1.2% | . | -44%
11 | . | . | -3% | -1%
12 | 7.9µM* | 0.1% | ? | .

The results go on:
No. | structure | LASV entry inh | RE007 growth inh | Marburg entry inh | SARS PLpro yeast
13 | COc1ccc(-c2[nH]ncc2CN2CCC(N3CCSCC3)CC2)c(F)c1 | ? | 4% | -15%[46.1 µM] | 0%
14 | O=C1C=C(Nc2cccc(Cl)c2)CC(c2ccco2)C1 (stereo not given) | 3% | 9% | -13% | -8%
15 | O=C(N/N=C/c1cccc(Cl)c1)c1c(O)c2c([nH]c1=O)CCCC2 | 19% | 6% | ? | 2%
16 | CCCC1(CCC)C(=O)NC(=NCCc2ccc(OC)c(OC)c2)NC1=O | -1% | -2% | 3% | -4%
17 | Cc1ccc(S(=O)(=O)c2nc(-c3ccc(F)cc3)oc2SCC(=O)NCC2CCCO2)cc1 (stereo not given) | -4% | 22% | ? | ?
18 | CC1(C)NC(=O)N(CCCOc2ccc(Br)cc2Cl)C1=O | 88%[14.3 µM] | 1% | -8% | -3%
19 | O=C1CSC(=Nc2ccccc2[N+](=O)[O-])N1 | -4% | 0% | 5%[46.1 µM] | 0%
20 | O=c1cc(-c2ccccc2)nc(SCCOc2ccccc2Cl)[nH]1 | 7% | -2% | -3% | 0%
21 | CC(=O)c1nn(-c2ccc(Cl)cc2)c(=O)[nH]c1=O | . | 13% | . | 1%
22 | O=C(NCCc1csc(-c2cccnc2)n1)c1ccccc1 | 21%[46.1 µM] | -1% | . | 1%
23 | CC(=NO)c1ccc2c(c1)C(=NO)c1ccccc1-2 | 0% | -28% | 14% | .
24 | CCc1ccc(NC(=O)c2cc(S(=O)(=O)N3CCCCC3)c[nH]2)cc1 | 2%[46.1 µM] | . | . | .

No. | Cruzain inh noDet | Cruzain inh Det | StopGo reporter | NS1 function inh
13 | . | . | -18% | 0%
14 | -15% | -4.6% | . | 1%
15 | . | . | 19% | 6%
16 | -15% | -4.0% | -2% | -1%
17 | ? | -3.7% | 5% | 1%
18 | -1% | -2.5% | 8% | -36%
19 | . | . | -13% | 1%
20 | . | . | -5% | 2%
21 | . | . | -13% | -52%
22 | -7%&5% | -3.6%&-1.9% | -11%&-11% | 10%
23 | . | . | 9% | .
24 | 2% | 0.8% | 24% | .

Other structures.
No. | structure | LASV entry inh | RE007 growth inh | Marburg entry inh | SARS PLpro yeast
25 | COc1cccc(OCc2cc(=O)n3c(-c4ccccc4)csc3n2)c1 | 10%[46.1 µM] | . | ? | .
26 | S=c1[nH]nc(C2CC2)n1Cc1ccco1 | 13% | -10% | 16% | 14%
27 | CC1c2ccsc2CCN1S(=O)(=O)c1ccccc1 (stereo not given) | -15% | -7% | -5%[46.1 µM] | -5%
28 | Cc1cc(O)c2c(C)c(CC(=O)N3CCN(C(=O)C4COc5ccccc5O4)CC3)c(=O)oc2c1 (stereo not given) | . | 0% | . | 10%
29 | S=C(Nc1ccccc1)N1CCn2c(nc3ccccc32)C1 | -3%[46.1 µM] | 1% | 8%[46.1 µM] | 2%
30 | CCNC(=S)NNC(=O)CSc1nc2ccccc2[nH]1 | -11% | 11% | -18%[46.1 µM] | 5%
31 | CCOc1ccccc1NC(=S)Nc1ncccc1C | ? | -26% | ? | -22%
32 | COc1ccc(C(=O)CSC2=NS(=O)(=O)c3cc(Cl)ccc3N2)cc1 | -3% | -3% | 7%[46.1 µM] | -1%
33 | Cc1cc(C)c(C)c(S(=O)(=O)NC2CCCCC2)c1C | 1%[46.1 µM] | -6% | ? | -4%
34 | COc1cc(OC)c(NC(=O)Nc2c(C)n(C)n(-c3ccccc3)c2=O)cc1Cl | -7%[46.1 µM] | . | -14%[46.1 µM] | .
35 | Cc1ccc(Nc2nc3c([nH]2)c(=O)[nH]c(=O)n3C)cc1 | -7% | 0% | -11% | -3%
36 | CCOC(=O)c1cccc(NS(=O)(=O)Cc2ccccc2)c1 | -8%[46.1 µM] | 0% | -9%[46.1 µM] | -2%

No. | Cruzain inh noDet | Cruzain inh Det | StopGo reporter | NS1 function inh
25 | 14% | -6.0% | -4% | .
26 | 0% | 3.3% | -14% | 8%
27 | . | . | -18% | -2%
28 | . | . | -16% | 6%
29 | . | . | 12% | .
30 | . | . | -4% | .
31 | -5% | -7.2% | 5% | -4%
32 | . | . | 25% | .
33 | . | . | 45%[activator] | -50%
34 | -14% | -1.4% | -10% | .
35 | ? | 7.1% | -11% | -2%
36 | . | . | 19% | -10%

Laid out differently: results already given
31) CCOc1ccccc1NC(=S)Nc1ncccc1C
  LASV entry inh: ?
  RE007 growth inh: -26%
  Marburg entry inh: ?
  SARS PLpro yeast: -22%
  Cruzain inh noDet: -5%
  Cruzain inh Det: -7.2%
  StopGo reporter: 5%
  NS1 function inh: -4%

32) COc1ccc(C(=O)CSC2=NS(=O)(=O)c3cc(Cl)ccc3N2)cc1
  LASV entry inh: -3%
  RE007 growth inh: -3%
  Marburg entry inh: 7%[46.1 µM]
  SARS PLpro yeast: -1%
  Cruzain inh noDet: .
  Cruzain inh Det: .
  StopGo reporter: 25%
  NS1 function inh: .

33) Cc1cc(C)c(C)c(S(=O)(=O)NC2CCCCC2)c1C
  LASV entry inh: 1%[46.1 µM]
  RE007 growth inh: -6%
  Marburg entry inh: ?
  SARS PLpro yeast: -4%
  Cruzain inh noDet: .
  Cruzain inh Det: .
  StopGo reporter: 45%[activator]
  NS1 function inh: -50%

The listing continues.
No. | structure | LASV entry inh | RE007 growth inh | Marburg entry inh | SARS PLpro yeast
37 | COc1ccc(C(=O)NC2CCN(CC(=O)N3CCCCC3)CC2)cc1 | -9%[46.1 µM] | -4% | 3%[46.1 µM] | 0%
38 | CC(=O)N1c2ccc(S(=O)(=O)NCCC(=O)N3CCC(C)CC3)cc2CC1C (stereo not given) | . | 7% | . | -1%
39 | COc1cccc(NC(=O)CSc2nc(C)cs2)c1 | 1% | -14% | ? | -7%
40 | O=C(CSC1=NCCS1)Nc1ccnc2ccccc12 | -21% | -25% | -29% | 2%
41 | O=C(Nc1cc(C(F)(F)F)ccc1Cl)C(Sc1nnc(-c2cccs2)o1)c1ccccc1 (stereo not given) | 2% | 13% | -1% | -11%
42 | CCC(=O)NCCCCCCNC(=O)CC | 17% | 5% | 16% | -9%
43 | CCOC(=O)C(C)Sc1nnc(CNC(=O)c2ccc(OC)cc2)n1C1CCCCC1 (stereo not given) | 15% | 3% | -1% | 1%
44 | O=C(NCCn1ccc2ccccc21)c1ccc(S(=O)(=O)N2CCCCC2)cc1 | . | -1% | . | -17%
45 | Cc1c(C(=O)NCc2ccc3c(c2)OCO3)cccc1[N+](=O)[O-] | 1% | -9% | 4% | -11%
46 | CCCCN(CCCC)CCNC(=O)c1cn(C)c2ccc(S(=O)(=O)N3CCCC3)cc2c1=O | 8%[46.1 µM] | 8% | 8%&8%[46.1 µM] | .
47 | Cc1ccc(C)c(CN2C(=O)COc3ccccc32)c1 | -9% | 14% | -13% | 1%
48 | O=C(NCc1ccccc1C(F)(F)F)C1CCC(=O)N(C2CC2)C1 (stereo not given) | . | 1% | . | ?
49 | COc1ccc(/C=C/C(=O)Nc2sc(C)c(C)c2C(=O)O)cc1 | ? | . | . | .

No. | Cruzain inh noDet | Cruzain inh Det | StopGo reporter | NS1 function inh
37 | . | . | 4% | 5%
38 | . | . | -18% | -4%
39 | 6% | 1.5% | 30%[activator] | -4%
40 | 5% | -3.1% | . | 7%
41 | -22% | -8.6% | 2% | 15%
42 | -9% | 0.2% | -18% | 3%
43 | 14% | -3.5% | -25% | -3%
44 | -10% | -3.5% | ? | ?
45 | -9% | -0.9% | -12% | 16%
46 | 1% | -1.8% | -1%&-21% | 2%
47 | . | . | 0% | -18%
48 | . | . | -6% | -5%
49 | -17% | -8.0% | -13% | .
